# Screening results deposited in PubChem by Johns Hopkins Ion Channel Center.
# KCNQ2 block: KCNQ2 potassium channel inhibitors, primary screen, cell-based, CHO-K1, FluxOR thallium flux, B-score (AID 2156) | B-score at 10 µM | hit rate 1.1% among 310,000 | 20 min; active compounds read low; only compounds with negative scores are shown here; some inactives read as strong as hits;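 active = fluorescence ratio B-score at most minus 3 library SDs, with starting brightness B-score within 2 library SDs, cut at about -5.5 in these data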
# Target sequence (O88943 whole entry, looked up): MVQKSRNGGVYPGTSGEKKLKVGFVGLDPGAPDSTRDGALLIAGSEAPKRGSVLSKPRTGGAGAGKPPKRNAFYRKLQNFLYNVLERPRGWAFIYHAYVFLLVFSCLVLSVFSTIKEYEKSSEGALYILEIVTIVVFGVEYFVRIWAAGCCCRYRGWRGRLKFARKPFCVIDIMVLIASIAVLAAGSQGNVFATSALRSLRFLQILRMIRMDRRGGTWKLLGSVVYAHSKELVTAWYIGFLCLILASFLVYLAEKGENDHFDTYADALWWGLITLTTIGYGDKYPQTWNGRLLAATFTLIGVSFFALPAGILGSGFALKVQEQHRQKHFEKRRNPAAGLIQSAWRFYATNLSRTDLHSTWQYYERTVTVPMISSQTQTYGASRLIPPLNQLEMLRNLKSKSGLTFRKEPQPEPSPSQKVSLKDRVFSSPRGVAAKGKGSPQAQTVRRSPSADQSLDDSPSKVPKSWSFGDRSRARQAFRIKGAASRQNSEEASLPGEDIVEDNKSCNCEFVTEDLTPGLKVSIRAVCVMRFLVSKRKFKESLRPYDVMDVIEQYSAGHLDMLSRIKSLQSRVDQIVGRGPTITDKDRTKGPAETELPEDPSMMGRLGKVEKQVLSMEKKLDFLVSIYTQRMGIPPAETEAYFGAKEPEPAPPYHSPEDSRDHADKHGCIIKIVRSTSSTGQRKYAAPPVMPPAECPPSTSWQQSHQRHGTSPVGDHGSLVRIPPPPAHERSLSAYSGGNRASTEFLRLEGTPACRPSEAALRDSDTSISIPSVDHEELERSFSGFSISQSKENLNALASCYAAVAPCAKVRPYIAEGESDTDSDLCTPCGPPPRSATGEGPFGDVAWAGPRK
# KCNQ2 block baseline: further read-out of KCNQ2 block, marked with its call; B-score; measured here: initial fluorescence intensity artifact check;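 brightness before thallium and not channel activity; 0 = typical well and far values either way flag optical interference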
# * = called active by the depositor; i = inactive.
structure | KCNQ2 block | KCNQ2 block baseline
O=C(/C=C/c1ccc(Cl)cc1)N1CCN(c2c(Cl)cccc2[N+](=O)[O-])CC1 | i | 0.05
CC(NC(=O)C1CCCN1S(=O)(=O)c1cccc2nsnc12)c1ccccc1 (stereo unspecified) | i | -0.75
O=C(O/N=C(\c1ccccc1)c1ccncc1)c1ccccc1Cl | i | 0.63
Cc1ccc(S(=O)(=O)NCC(=O)OCC(=O)Nc2cccc(S(=O)(=O)NC3=NCCCCC3)c2)cc1 | i | -0.92
Cc1ccc(S(=O)(=O)N(C)c2c(C)ccc(S(=O)(=O)N3CCN(C)CC3)c2C)cc1 | i | 0.32
O=C(CSc1ccccn1)N1CCN(c2ccc(Cl)cc2)CC1 | i | -0.54
Cc1cc(C)c(S(=O)(=O)c2ccccc2C)c(OCC(C)(C)C)n1 | i | -0.18
CCn1c(CNC(=O)c2cc(OC)c(OC)c(OC)c2)cc2ccccc21 | i | 1.4
O=C(NC(=O)N1CCN(c2ccccc2)CC1)c1ccc(Cl)cc1 | i | -0.29
CN(Cc1nc(Cc2ccccc2F)no1)CC1(N2CCOCC2)CCCCC1 | i | 0.12
CC(C)C(O)(c1ccccc1)C(CN1CCOCC1)c1ccccc1 (stereo unspecified) | i | -2.2
CCOC(=O)c1[nH]c2c(c1C)C(=O)CC(c1ccc(N(C)C)cc1)C2 (stereo unspecified) | i | -1.4
COc1ccc(CC2(C)OC(c3ccc(C)cc3)=NN2C(C)=O)cc1 (stereo unspecified) | i | 1
O=C(COC(=O)CCc1ccc(S(=O)(=O)N2CCOCC2)cc1)NC1CCCC1 | i | 0.1
CCC1CN(C(=O)NCc2ccc(C)cc2)c2cc(C)ccc2O1 (stereo unspecified) | i | 0.65
Cc1n[nH]c(C)c1S(=O)(=O)N1CCCC(C(=O)NCc2cccs2)C1 (stereo unspecified) | i | 0.34
Cc1noc(C)c1CSCC(=O)Nc1nc2ccc(Oc3ccccc3)cc2s1 | i | -1.3
O=C(NC1CCCC1)C(c1ccncc1)N(Cc1ccco1)C(=O)c1ccc(-c2ccccc2)[nH]1 (stereo unspecified) | i | 0.12
C[C@@]12CCC=C[C@H]1[C@H](c1ccc3ccccc3c1/C=C/c1ccccc1)N(Cc1ccccc1)C2=O | i | 1.3
C=CCOC(=O)C1=C[C@H](c2ccccc2)[C@@H](CCCO)[C@H](OCC)O1 | i | -0.77

# Next part, starting with the last 7 of the part before.
structure | KCNQ2 block | KCNQ2 block baseline
O=C(COC(=O)CCc1ccc(S(=O)(=O)N2CCOCC2)cc1)NC1CCCC1 | i | 0.1
CCC1CN(C(=O)NCc2ccc(C)cc2)c2cc(C)ccc2O1 (stereo unspecified) | i | 0.65
Cc1n[nH]c(C)c1S(=O)(=O)N1CCCC(C(=O)NCc2cccs2)C1 (stereo unspecified) | i | 0.34
Cc1noc(C)c1CSCC(=O)Nc1nc2ccc(Oc3ccccc3)cc2s1 | i | -1.3
O=C(NC1CCCC1)C(c1ccncc1)N(Cc1ccco1)C(=O)c1ccc(-c2ccccc2)[nH]1 (stereo unspecified) | i | 0.12
C[C@@]12CCC=C[C@H]1[C@H](c1ccc3ccccc3c1/C=C/c1ccccc1)N(Cc1ccccc1)C2=O | i | 1.3
C=CCOC(=O)C1=C[C@H](c2ccccc2)[C@@H](CCCO)[C@H](OCC)O1 | i | -0.77
Cc1ccc(C2C3C(=O)N(c4ccc(C)cc4)C(=O)C3N3CCCN23)cc1 (stereo unspecified) | i | 0.1
CC(=O)Nc1ccc(S(=O)(=O)NC2=C(N3CCN(Cc4ccccc4)CC3)C(=O)c3ccccc3C2=O)cc1 | i | -1.9
CC(C)(C)n1nc2c(c1NC(=O)c1ccccc1C(F)(F)F)CS(=O)(=O)C2 | i | -0.34
COc1ccc(NS(=O)(=O)c2ccc(Cl)s2)cn1 | i | 4.1
CC1(C)Oc2ccc3ccc(=O)oc3c2/C(=C/Nc2ccc(O)cc2)C1=O | i | -0.46
CC1CCCCC1NC1=NCCS1 (stereo unspecified) | i | 1.4
CCOCCCNC(=O)C1CCCN(S(=O)(=O)CC)C1 (stereo unspecified) | i | 0.72
CSc1nnc(-c2sccc2OCc2ccccc2)n1C | i | -0.93
CO/N=C\C(=N\Nc1ccc(OC)cc1)C(=O)c1ccccc1 | i | -0.32
COc1ccccc1C(=O)N/C(=C\c1ccc(Br)cc1)C(=O)N1CCCC1 | i | -1
CCOc1ccc(CSC(=N)N)cc1Cl | i | 0.47
O=C(O)CN1C(c2ccccc2O)Nc2ccc(Br)cc2C1c1ccccc1 (stereo unspecified) | i | -0.76
CC1(c2nnc(-c3ccccc3)o2)CC(c2ccncc2)=NO1 (stereo unspecified) | i | 0.67
COc1ccc(/C=C2\CCC(C3CCCC3)C2=O)c(OC)c1OC (stereo unspecified) | i | -0.3
COc1cc(/C=C/C(=O)O)cc(S(=O)(=O)Nc2ccccc2Oc2ccccc2)c1OC | i | -0.8
COCCNC(=O)c1ccc(N2CC3CC(C2)c2cccc(=O)n2C3)c(NC(=O)c2c(F)cccc2F)c1 (stereo unspecified) | i | -2.7
CCNC(=O)COc1ccc(C=O)cc1OC | i | 1.5
CC(=O)NC(CC(=O)Nc1nc(C)cs1)c1ccccc1 (stereo unspecified) | i | -0.19
CC(C)[C@H](NC(=O)c1ccco1)C(=O)OCC(=O)N1CCc2ccccc21 | i | 0.07
O=C(CCc1nc(-c2ccc(Cl)cc2)no1)OCc1ccc(Br)cc1 | i | 0.74
COc1ccccc1NC(=O)/C(C#N)=C/C=C/c1ccco1 | i | -0.27
CCCCC1=CC2=CC(=O)C(C)(OC(=O)CC)C(=O)C2=CN1CCc1ccc(Br)cc1 (stereo unspecified) | i | 0.01
Cc1ccsc1S(=O)(=O)N1CCC(CO)(CC2CCCCO2)CC1 (stereo unspecified) | i | 0.06
CN(C)C=Nc1nonc1-c1ccccc1 | i | 0.01
Cc1ccsc1C(=O)N(C)CC(=O)N(CC(C)C)c1c(N)n(CC(C)C)c(=O)[nH]c1=O | i | -0.55
CN1CCN(CCC(=O)N/N=C/C=C2\N(C)c3ccccc3C2(C)C)CC1 | i | -0.19
CCCNS(=O)(=O)c1cccc(C(=O)NNC(=O)c2cc(C)oc2C)c1 | i | -0.41
CCOC(=O)Cn1c(O)c(N=NC(=O)OC)c2ccccc21 | i | -0.09
Cc1ccc(OCC(=O)Nc2ccc(C)c(S(=O)(=O)N3CCCCC3)c2)c([N+](=O)[O-])n1 | i | 1.2
C=CCNC(=O)CSc1nc2sc3c(c2c(=O)n1CCC)CCC3 | i | -1.8
CCOC(=O)C1=C(C)NC(=S)N(C(C)=O)C1c1ccccc1 (stereo unspecified) | i | -0.68
CN(c1ccccc1C(=O)Nc1ccc2c(c1)OCCO2)S(C)(=O)=O | i | -3
Cc1ccc(OCCCCN2CCc3ccccc3C2)c(C)c1 | i | 0.06
COCCn1c(N)c(N(Cc2ccccc2)C(=O)CSCC(=O)Nc2ccc(C)cc2)c(=O)[nH]c1=O | i | -1.9
CCC(=O)N/N=C(\C)CC(=O)Nc1cc(Cl)ccc1C | i | -0.14
COc1ccc(C2=NN(C(N)=S)C(c3ccco3)C2)cc1 (stereo unspecified) | i | -0.82
O=C(O)CCCCCNS(=O)(=O)c1cccc2nsnc12 | i | 0.98
C=CCn1nc(-c2ccccc2)cc1C(=O)OCC | i | 2.2
Cc1ccc(C(c2nnnn2C2CCCCC2)N(C)C2CCCCC2)cc1 (stereo unspecified) | -8.3* | 0.54*
CCOc1ccccc1CNC(=O)CCn1ccc2cc(S(=O)(=O)N3CCCCC3)ccc21 | i | 1.6

# Reformatted as labelled records: part of the list above
mol: COc1ccc(C2=NN(C(N)=S)C(c3ccco3)C2)cc1 (stereo unspecified)
  KCNQ2 block: i; KCNQ2 block baseline: -0.82

mol: O=C(O)CCCCCNS(=O)(=O)c1cccc2nsnc12
  KCNQ2 block: i; KCNQ2 block baseline: 0.98

mol: C=CCn1nc(-c2ccccc2)cc1C(=O)OCC
  KCNQ2 block: i; KCNQ2 block baseline: 2.2

mol: Cc1ccc(C(c2nnnn2C2CCCCC2)N(C)C2CCCCC2)cc1 (stereo unspecified)
  KCNQ2 block: -8.3*; KCNQ2 block baseline: 0.54*

# (cont.)
# Values run as follows: KCNQ2 block, KCNQ2 block baseline
O=C(CSc1nnc(-c2cccnc2)n1-c1ccccc1)Nc1ccc2c(c1)OCO2
    i, 2.6
O=C(O)COc1ccc(/C=N/NC(=O)/C(=C/C=C/c2ccccc2)NC(=O)c2ccccc2)cc1
    i, -0.83
COC(CNC(=O)C(=O)Nc1cc2c3c(c1)CCN3C(=O)CC2)OC
    i, 0.92
CCN(Cc1ccccc1)C(=S)Nc1cc(C(=O)OC)ccc1C(=O)OC
    i, 0.92
CCC(C)(C)n1nnnc1C(c1ccc(C)cc1)N1CCN(C(=O)c2ccco2)CC1 (stereo unspecified)
    i, -0.88
O=[N+]([O-])c1cccc(C2=NCCC(c3ccccc3)O2)c1 (stereo unspecified)
    i, 0.13
O=C(O)CCCn1ccc2cc(S(=O)(=O)N3CCCC3)ccc21
    i, -0.18
Cc1noc2ncnc(Sc3ccc(Br)cc3)c12
    i, 2.5
O=C(c1ccco1)N1CCN(CCOc2ccccc2)CC1
    i, 1
NC(=O)C[n+]1cccc(/C=N/O)c1
    i, 0.56
Cc1ccc(C2=CC(c3ccccc3)n3ncnc3N2)c(C)c1 (stereo unspecified)
    i, -0.46
COc1ccc(NC(=O)CSc2nnc(CN3CCOCC3)n2C)cc1Cl
    i, -0.59
COc1ccc(C)cc1Nc1n[n+](-c2ccccc2)c(-c2ccc(SC)cc2)s1
    i, 1.9
COc1ccc(C(=O)NCC(c2cccs2)N2CCc3ccccc32)cc1OC (stereo unspecified)
    i, -0.81
COc1cccc(OC)c1NC(=O)C1CCCN1C(=O)Nc1ccccc1F (stereo unspecified)
    i, -2
CCn1ncc(Br)c1C(=O)N(C)C12CC3CC(CC(C3)C1)C2
    i, 1.1
CC(C)c1c(C(=O)N/N=C/c2cccc(OCc3ccc(F)cc3)c2)nnn1-c1nonc1N
    i, 0.86
CCc1c(C#N)c(SCCC(=O)Nc2ccc(OC)cc2)nc2c1C(=O)CC(C)(C)C2
    i, 2
O=C(COc1ccc(Br)cc1)Nc1ccc(Cc2ccncc2)cc1
    i, -0.01
CCOc1ccc(NC(=O)CN(C)S(=O)(=O)c2ccc3c(c2)CCC(=O)N3)cc1
    i, -1.5
CCCn1c(C(O)c2ccc3c(c2)OCO3)nc2ccccc21 (stereo unspecified)
    i, 1.3
COc1cc(OC)cc(-c2cc(N)n(S(=O)(=O)Cc3ccccc3)n2)c1
    i, 0.04
CCN(CC)S(=O)(=O)c1cc(C(=O)O)c(Cl)cc1Cl
    i, 0.09
O=C(COC(=O)CCC(=O)Nc1nccs1)NCc1ccco1
    i, 1.7
COc1ccc(F)c(C2C(C#N)=C(N)Oc3n[nH]c(C(C)(C)C)c32)c1 (stereo unspecified)
    i, -1.2
COc1ccc(-n2c(=O)c3ccccc3n(CC(=O)Nc3ccccc3OC)c2=O)cc1
    i, -1.2
CN1C(=O)C(=C2CCCCCC2)SC1=S
    i, -0.12
COc1ccc(C2CC(c3cccs3)=NN2C(=O)CSc2nncn2C)cc1OC (stereo unspecified)
    i, 0.29
CC1(C)Oc2ccc3ccc(=O)oc3c2CC1O (stereo unspecified)
    i, 2
CCN(CC(=O)Nc1ccc(NC(C)=O)cc1)C(=O)c1cccnc1Sc1ccc(C)c(C)c1
    i, 1.7
CCn1c(CS(=O)Cc2ccc(Cl)cc2Cl)nnc1SCc1c(Cl)cccc1Cl (stereo unspecified)
    i, 0.01
O=C(COc1coc(CN2CCc3ccccc3C2)cc1=O)Nc1ccc(Cl)cc1
    i, 1.2
Cc1c(Br)c([N+](=O)[O-])nn1C(C)C(=O)NCC1CCCO1 (stereo unspecified)
    i, 0.8
CN(CC(=O)N1CCc2ccccc21)S(=O)(=O)c1cccc2cccnc12
    i, 1.4
Cc1c(NS(=O)(=O)c2cc(C(=O)O)ccc2Cl)c(=O)n(-c2ccccc2)n1C
    i, -1.8
CCOc1ccccc1NC(=O)COC(=O)C(CC(C)C)N1C(=O)C2CC=CCC2C1=O (stereo unspecified)
    i, -0.07
CCN(CC(=O)Nc1ccccc1C(F)(F)F)C(=O)c1oc2c(Cl)cccc2c1C
    -6.8*, -2.3*
COc1ccccc1C1CCN(Cc2cccc3ccccc23)CC1
    i, 0.63
CC(=O)N1CCOc2ccc(S(=O)(=O)N3CCC(C)CC3)cc21
    i, 2
O=C(Nc1ccc(S(=O)(=O)N2CCc3ccccc32)cc1)c1ccco1
    i, 0.34
O=C1N(Cc2cccc(Cl)c2)C[C@@H]2C[C@@H](c3cccn3-c3nccs3)N3CCC[C@@]123
    i, 0.76
O=C(Nc1ccccc1Cl)c1cc2ccccc2o/c1=N\O
    -5.6*, -0.65*
O=C(COC(=O)CCc1c[nH]c(=O)[nH]1)Nc1ccccc1
    i, -0.73
COc1ccccc1C1(O)CCN(CC(=O)Nc2nc(-c3ccccc3)cs2)CC1
    i, -1
CCCCCn1nnc2c(=O)oc3ccccc3c21
    i, -0.01
COc1ccc(/C=C/C(=O)N(C(C)C)C(C)C)cc1Br
    i, -1.1
COC(=O)c1ccccc1S(=O)(=O)NCc1nc2nc(C)cc(C)n2n1
    i, -1.1
c1ccc(CSc2ncnc3c2oc2ccccc23)cc1
    i, 0.34
Cc1c(C(=O)OCC(=O)Nc2ccccc2OC(F)F)cccc1[N+](=O)[O-]
    i, -0.89
O=C(Nc1ccnn1C1CCN(C(=O)c2ccc(F)c(Cl)c2)CC1)C1CC1
    i, 0.55

# Following part:
# Values run as follows: KCNQ2 block, KCNQ2 block baseline
COc1cccc(NS(=O)(=O)NC(=O)c2cn(C)c3ccccc23)c1
    i, 2
O=C(O)c1cnc2ccccc2n1
    i, 2.3
Cc1sc(NC(=O)CSc2ncn(-c3ccccc3)n2)nc1-c1ccccc1
    i, 1.2
C#CC[N+](C)(C)CCCCCCCC
    i, 0.39
Cc1cc(C(=O)Nc2ccccc2)c(C)o1
    i, -0.13
CCOP(=O)(OCC)/C(=N/OC(=O)c1cccc([N+](=O)[O-])c1)C(N)=O
    i, -0.67
COc1ccc(N2CCN(C(CNS(=O)(=O)c3ccc4c(c3)OCCO4)c3ccco3)CC2)cc1 (stereo unspecified)
    i, 0.02

# The list is partial, so the mix of outcomes need not match the whole.
